Screens: PubChem, several laboratories
HSF1 inh: HSF1 inhibitors in luciferase reporter cells, primary screen, cell-based, NIH3T3, luminescence; NIH3T3-HGL HSE-luciferase, MG132-induced, luminescence 8 h; active compounds read low; AID 2098, 2009; 300,000 tested, 0.77% active; activity change, negative = inhibition, % at 7.5 µM (by protocol);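 active = more than half of replicate wells show activity change below -50%, luminescence cut by over half; inconclusive = some wells, but at most half, below -50%; inactive = no replicate well below -50%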;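 also: luciferase reports HSF-1 transcriptional activity via heat shock element; 0% = median of DMSO wells and -100% = zero luminescence signal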
AI-2 QS mod: Vibrio harveyi AI-2 quorum sensing modulators, primary screen, JMH597 strain, luminescence/OD600 ratio; Vibrio harveyi JMH597 AI-2 luminescence/OD600 ratio, 9 h; active compounds read low; strain lacks LuxN and CqsS sensors; 0 = neutral-control median; activity change, % at 7.5 µM; 300,000 tested, 0.4% active; AID 2094, 2009; in the data active = activity change below about -75%, passing the limit was not always enough; inconclusive = no clear call, values can overlap the other calls;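 also: luminescence divided by OD600 gain over 9 h not by final OD600 alone; inactives centre near 13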
HSF-1 act: HSF-1 activators, primary screen, NIH3T3-HGL cells, MG132 stress, luminescence, single point; activation, % at 9 µM; 300,000 tested, 1.7% active; AID 504408, 2011; NIH3T3-HGL HSF-1 luciferase reporter, 8 h; 100% = twice DMSO control signal;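 active = mean replicate activation of at least 50% with a set share of replicates each reaching 50%; inconclusive = only one of those two conditions met; inactive = mean below 50% and too few replicates reaching it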;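 also: 0% = median of the neutral control wells and 100% = twice that signal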
GSK3beta inhib: human GSK3beta kinase inhibitors, primary screen, biochemical, cell-free homogeneous, HTS; Glycogen synthase kinase-3 beta (Homo sapiens), P49841; activity score (negative = inhibition), % at 10 µM; 300,000 tested, 0.038% active; AID 2097, 2009; GST-GSK3beta kinase, ADP-Glo luminescence, 60 min; active compounds read low;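 active = more than half of replicate wells score below -50%, meaning over 50% inhibition versus plate controls; inconclusive = some replicates but at most half score below -50%; inactive = no replicate scores below -50%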;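 also: 0% = median DMSO wells and -100% = median GW8510 positive control wells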
Target sequence (P49841 whole entry, looked up): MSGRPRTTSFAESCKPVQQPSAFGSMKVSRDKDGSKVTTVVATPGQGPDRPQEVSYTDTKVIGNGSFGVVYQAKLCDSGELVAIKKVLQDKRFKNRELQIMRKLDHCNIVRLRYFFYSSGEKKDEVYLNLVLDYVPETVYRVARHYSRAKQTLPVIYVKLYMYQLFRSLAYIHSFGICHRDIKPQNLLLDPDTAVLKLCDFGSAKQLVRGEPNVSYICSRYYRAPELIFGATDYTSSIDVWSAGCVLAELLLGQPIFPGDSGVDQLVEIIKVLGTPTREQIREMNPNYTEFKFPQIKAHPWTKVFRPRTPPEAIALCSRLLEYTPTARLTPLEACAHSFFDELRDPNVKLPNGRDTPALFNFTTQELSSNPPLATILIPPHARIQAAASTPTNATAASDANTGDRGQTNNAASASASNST
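Test system: GST-tagged human GSK3beta kinase, cell-free; evaluation: activity score scaled between in-plate DMSO and GW8510 controls; measured by: ADP-Glo luminescence; incubation: 60 min reaction, RT; benchmarks: DMSO and 20 µM GW8510; reagent: peptide substrate plus 25 µM ATP (final); medium: Tris/MgCl2 kinase buffer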
GSK3A inh: blockers of GSK3A enzyme activity – biochemical, luminescence, cell-free homogeneous, HTS, primary screen | Glycogen synthase kinase-3 alpha (Homo sapiens), P49840 | GSK-3 alpha kinase, ADP-Glo luminescence, 60 min | inhibition, % at 10 µM | 320,000 tested, 0.1% active;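 in the data active = inhibition above about 50%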;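 also: GST-tagged GSK-3 alpha with peptide substrate and 25 µM ATP; 0% = DMSO neutral wells and 100% = GW8510 positive control wells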
Target sequence (P49840 whole entry, looked up): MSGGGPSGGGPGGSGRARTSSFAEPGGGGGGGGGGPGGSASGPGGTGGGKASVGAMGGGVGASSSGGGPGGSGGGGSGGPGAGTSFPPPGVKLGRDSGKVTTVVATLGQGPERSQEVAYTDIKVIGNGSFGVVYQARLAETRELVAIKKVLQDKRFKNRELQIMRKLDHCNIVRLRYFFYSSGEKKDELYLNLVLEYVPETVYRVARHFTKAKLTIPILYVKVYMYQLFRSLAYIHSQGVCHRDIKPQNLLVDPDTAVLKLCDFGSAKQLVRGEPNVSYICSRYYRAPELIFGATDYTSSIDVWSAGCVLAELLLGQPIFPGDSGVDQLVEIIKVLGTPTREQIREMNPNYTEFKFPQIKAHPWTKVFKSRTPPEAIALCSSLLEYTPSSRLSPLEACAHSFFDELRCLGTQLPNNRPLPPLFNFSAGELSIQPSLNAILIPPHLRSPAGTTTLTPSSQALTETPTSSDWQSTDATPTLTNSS
aSyn UTR inh: MLPCN primary screen, SNCA 5' untranslated region; inhibition, % (tested at 7.5 µM); 300,000 tested, 0.82% active; alpha-synuclein 5'UTR reporter, inhibitor activity; in the data active = inhibition above about 60%; inconclusive = no clear call, values can overlap the other calls;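 also: H4 neuroglioblastoma cells stably carrying SNCA 5'UTR luciferase fusion; 0% = DMSO wells and 100% = positive control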
HSP90 refold inh: HSP90 inhibitors, primary screen, cell lysate, luminescence; Rabbit reticulocyte lysate, luciferase refolding luminescence, 3 h; Heat shock protein HSP 90 (rabbit reticulocyte lysate; luciferase refolding); inhibition, % at 5.6 µM; 290,000 tested, 0.91% active;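 active = inhibition above the screen-wide mean plus 3 SD, computed separately per campaign, cut at about 16% in these data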;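 also: 0% = DMSO wells and 100% = 60 µM geldanamycin wells; inhibitors lower the luminescence because luciferase stays unfolded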
KLF5 inh: KLF5 expression inhibitors, primary screen, DLD-1 cells, luminescence; 290,000 tested, 0.23% active; inhibition, % at 5 µM; DLD-1 KLF5 promoter-luciferase reporter; AID 1700, 2009;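 active = inhibition above a per-plate limit of that plate's mean compound inhibition plus 3 SD, cut at about 60% in these data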;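 also: 0% = DMSO wells and 100% = LY294002 at 200 µM; higher means less KLF5 promoter-driven luciferase light; inactives centre near -14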
IEC-6 cytotox: cytotoxicity in IEC-6 intestinal epithelial cells, primary screen, cytotoxicity control for KLF5 inhibitor project, cell-based, luminescence; IEC-6 cytotoxicity, luminescence viability; inhibition, % at 5 µM; 290,000 tested, 0.78% active; in the data active = inhibition above about 22%;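 also: 0% = plate median of test compound wells and 100% = cytotoxic reference compound wells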
The depositor's hits bear a star; ? = inconclusive; · = no result given. This is a subset; rates above refer to the full screens.

SMILES	HSF1 inh	AI-2 QS mod	HSF-1 act	GSK3beta inhib	GSK3A inh	aSyn UTR inh	HSP90 refold inh	KLF5 inh	IEC-6 cytotox
Cc1ccc(OCC(=O)NCC(=O)n2nc(C)cc2C)cc1	-9	-9	0	3	2	8	-1	-1	-1
CCOC(=O)c1[nH]c2ccccc2c1N=C(C)N(CC)CC	-8	8	-4	0	3	24	-2	-3	-4
CC1(C)CC(=O)C(C=NCC(O)c2ccccc2)=C(O)C1 (stereo unspecified)	1	38	4	6	·	-7	1	22	-1
COC(=O)CNC(=O)c1c(C)cc(=O)oc1C	-8	29	25	1	-1	-17	0	-2	-2
CC(C)C[C@H](NC(=O)[C@@H]1O[C@H]1C(=O)O)C(=O)NCCCCN=C(N)N	-2	24	-3	0	-1	2	2	-5	-4
O=C(Nc1nc(=O)c2ccccc2s1)c1ccccc1	1	15	-13	3	0	-157	-5	0	1
COc1ccc(/C(O)=C2/C(=O)C(=O)N(c3nc(C)c(C)s3)C2c2ccco2)cc1 (stereo unspecified)	20	9	21	1	-2	-1	0	4	-4
Cn1ncc2c(Nc3ccccc3Br)ncnc21	-10	4	-13	-1	3	20	0	-19	-6
Clc1ccccc1C(c1ccccc1)(c1ccccc1)n1ccnc1	1	72	-19	-1	-2	10	12	21	12
Cc1ccc(-n2c(N)c(C(N)=O)sc2=S)cc1	-4	22	5	-3	0	5	-2	1	4
CN(C)c1nc2sc3c(c2c(=O)n1C)CC(C)(C)OC3	0	2	6	6	2	-30	-6	-10	-9
CC(C)C[C@H]1C(=O)N2CCC[C@H]2[C@]2(O)O[C@](NC(=O)C3C=C4c5cccc6[nH]c(Br)c(c56)C[C@H]4N(C)C3)(C(C)C)C(=O)N12 (stereo partly specified)	6	46	7	0	-4	16	·	·	·
CCN1CCN(c2nc3c(C)cccn3c(=O)c2/C=C(\C#N)S(=O)(=O)c2ccc(C)cc2)CC1	-8	15	-9	-2	-2	-12	2	-38	-5
O=C(O)CSCC(=O)Nc1ccc(S(=O)(=O)N2CCCCC2)cc1	-5	19	-1	3	1	-16	0	-17	-5
Cc1c(NC(=O)c2ccc(=O)oc2)c(=O)n(-c2ccccc2)n1C	-7	5	4	2	-1	-26	-1	-21	-1
ClC(Br)=C(n1cnc2ccccc21)n1cnc2ccccc21	7	13	8	-4	-4	-5	-2	-3	-2
CSc1nc(N)nc(SCC(=O)CC(=O)OC(C)C)c1C#N	9	23	22	2	0	0	0	-8	-6
CCOC(=O)CC1=NC(=O)CS1	1	-8	11	1	-1	-3	4	-19	-3
O=C(Oc1cccnc1)c1ccco1	2	33	10	3	0	-10	-4	-13	-3
CCc1nc2n[nH]c(N)c2c2c1CSC(C)(C)C2	-9	11	7	4	·	21	-1	-3	0
COc1cc(C2CC(C(F)(F)F)n3ncc(C(=O)O)c3N2)cc(OC)c1OC (stereo unspecified)	-5	4	33	1	1	12	0	-14	-2
CCN(CC)CCCC1(CN)OCCc2ccccc21 (stereo unspecified)	-6	14	14	-3	0	-20	1	-20	9
Nc1nc2n[nH]nc2c(=O)[nH]1	-1	-95*	-5	1	4	30	·	·	·
CCCn1c(=O)c2[nH]c(C3CCCC3)nc2n(CCC)c1=O	0	17	-3	-3	-3	31	2	7	5
CN(C)CCCOC(=O)C1c2ccccc2Oc2ccccc21	6	11	8	0	3	19	2	-6	-4

Continuation.
SMILES	HSF1 inh	AI-2 QS mod	HSF-1 act	GSK3beta inhib	GSK3A inh	aSyn UTR inh	HSP90 refold inh	KLF5 inh	IEC-6 cytotox
CC(=O)C(=[N+]=[N-])C(=O)NCc1ccccc1	-6	23	-24	-2	0	-15	-1	-6	-3
CCCc1nc(N2CCOCC2)c(C#N)c2c1CCCC2	-3	16	-2	0	0	34	2	-17	3
COC(=O)c1ccc(N2C(=O)CC(N3CCN(C(=O)c4ccco4)CC3)C2=O)cc1 (stereo unspecified)	-6	16	14	-27	-1	-15	3	0	-2
CN(C)CCNC(=O)C12CC3(C)CC(C)(CC(C)(C3)C1)C2	-13	1	7	-1	-29	-9	3	-50	2
C=CC1=C(C(=O)O)N2C(=O)[C@@H](NC(=O)/C(=N/OCC(=O)O)c3csc(N)n3)[C@H]2SC1	2	42	10	-4	-1	-11	·	·	·
O=C(N/N=C/c1ccc([N+](=O)[O-])o1)c1ccc(O)cc1	9	-128*	4	3	10	-9	8	-1	-13
CSc1ccc(C(=O)c2[nH]c(=O)[nH]c2C)cc1	1	30	11	0	0	25	·	·	·
NC(N)=NS(=O)(=O)c1ccc(N)cc1	-2	15	-10	0	-2	-16	5	11	-7
CCOC(=O)C1CCCN(c2nc3ccccc3nc2C(C#N)C(=O)OC(C)C)C1 (stereo unspecified)	0	13	5	1	-2	19	-5	-28	0
NC(=O)c1cc(-c2ccccc2)nc(Oc2ccccc2)n1	4	-26	1	3	-3	26	-7	-27	-3
CC(=O)Nc1ccc(-c2cc3ccccc3o2)cc1	-24	18	-42	1	-4	-147	6	-117	8
COCCCNC(=O)C(C#N)c1nc2ccccc2nc1N1CCN(Cc2ccccc2)CC1 (stereo unspecified)	3	4	33	3	·	9	0	-25	1
N#CC1(P(=O)(c2ccccc2)c2ccccc2)CC1	0	33	-3	1	-1	21	3	-15	1
O=C(NCCOCCOCCNC(=O)c1cccnc1)c1cccnc1	-9	-24	-9	0	0	-19	-2	-19	-7
c1ccc(CNc2ncnc3nc[nH]c23)cc1	-4	12	-5	-2	·	3	2	-12	5
CCOC(=O)CSc1nc(-c2ccc3c(c2)OCO3)ccc1C#N	-30	5	-33	1	-1	-113	14	-69	4
CCCOc1ccc(/C(O)=C2/C(=O)C(=O)N(CCN(C)C)C2c2ccc(OC)c(OC)c2)cc1 (stereo unspecified)	?	23	-57	-1	0	13	-3	-5	4
COc1cccc(OC)c1OCCN1CCN(C(=O)c2ccco2)CC1	0	2	-3	-3	-2	36	3	-17	0
Nc1nc(Cl)nc2c1ncn2[C@@H]1O[C@H](CO)[C@@H](O)[C@H]1O	-12	?	-17	-4	0	13	1	31	44*
Nc1nnnn1/N=C/c1cccs1	-5	28	5	-1	2	7	3	-17	5
Nc1nc(N)c2[nH]cnc2n1	5	-5	1	2	1	-19	·	·	·
NC(=O)C(c1ccccc1)C1CCCC1 (stereo unspecified)	1	20	-1	-1	0	9	2	-30	9
CCOC(=O)c1ccc(CSc2ncn[nH]2)o1	-1	34	-4	1	-1	-1	7	-9	2
Cc1ccc(N(CN2C(=O)NC(C)(C)C2=O)CN2C(=O)NC(C)(C)C2=O)cc1	-2	21	6	0	·	-6	2	0	5
CCOC(=O)Oc1ccc2c(c1)C(C)=CC(C)(C)N2C(=O)OCC	0	7	1	2	-1	10	-5	12	-6

Next structures:
SMILES	HSF1 inh	AI-2 QS mod	HSF-1 act	GSK3beta inhib	GSK3A inh	aSyn UTR inh	HSP90 refold inh	KLF5 inh	IEC-6 cytotox
COC(=O)c1ccc(CN(C(C)=O)c2ccccc2)o1	4	18	2	1	0	0	2	-42	-2
C/C(NC(=O)c1cccs1)=C1\C(=O)C[C@@H]2[C@H]1C2(C)C	23	24	30	2	2	-118	-3	-49	-1
COC(=O)C(NC(=O)c1ccco1)(Nc1ccc(Br)cn1)C(F)(F)F (stereo unspecified)	-30	10	-34	2	0	-5	0	-6	4
Cc1ncc(CO)c(CO)c1O	3	21	14	1	-2	33	·	·	·
O=C(c1ccc(N2C(=O)C3CC=C(Cl)CC3C2=O)cc1)N1CCCCC1 (stereo unspecified)	3	13	3	2	0	-14	2	-11	-5
CCCc1c(-c2ccc(O)cc2)nn(-c2ccc(O)cc2)c1-c1ccc(O)cc1	5	-13	3	-7	0	47	·	·	·
N#CCCSCc1ccc(OCC(=O)O)cc1	-2	15	17	-4	-3	-6	-2	-8	-3

Among those listed so far, these contain a cyano group.
SMILES	HSF1 inh	AI-2 QS mod	HSF-1 act	GSK3beta inhib	GSK3A inh	aSyn UTR inh	HSP90 refold inh	KLF5 inh	IEC-6 cytotox
CCN1CCN(c2nc3c(C)cccn3c(=O)c2/C=C(\C#N)S(=O)(=O)c2ccc(C)cc2)CC1	-8	15	-9	-2	-2	-12	2	-38	-5
CSc1nc(N)nc(SCC(=O)CC(=O)OC(C)C)c1C#N	9	23	22	2	0	0	0	-8	-6
CCCc1nc(N2CCOCC2)c(C#N)c2c1CCCC2	-3	16	-2	0	0	34	2	-17	3
CCOC(=O)C1CCCN(c2nc3ccccc3nc2C(C#N)C(=O)OC(C)C)C1 (stereo unspecified)	0	13	5	1	-2	19	-5	-28	0
COCCCNC(=O)C(C#N)c1nc2ccccc2nc1N1CCN(Cc2ccccc2)CC1 (stereo unspecified)	3	4	33	3	·	9	0	-25	1
N#CC1(P(=O)(c2ccccc2)c2ccccc2)CC1	0	33	-3	1	-1	21	3	-15	1
CCOC(=O)CSc1nc(-c2ccc3c(c2)OCO3)ccc1C#N	-30	5	-33	1	-1	-113	14	-69	4
N#CCCSCc1ccc(OCC(=O)O)cc1	-2	15	17	-4	-3	-6	-2	-8	-3
